# Screening data (PubChem BioAssay)
# Ecoli rRNA inh: selective bacterial rRNA inhibition in E. coli. E. coli WT GFP vs humanized-ribosome RFP mutants, fluorescence, 24 h; stronger effect = lower value; DMSO median 0, no signal -100. GFP signal change (wild-type ribosome), % (test concentration not listed). 350,000 compounds, 1.6% hits;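 active = significant combined selectivity score with lowered wild-type GFP, culture density cut under 30%, mutant RFP and density less affected; inactive = any of these conditions unmet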; note: one replicate is shown; some compounds called inactive have numbers as strong as hits
# MLL AF4-AF9 inh: MLL-AF4/AF9 protein interaction inhibition; AlphaScreen, biotin-AF4 peptide binding to FLAG-AF9; inhibition, % at 10 µM; 350,000 compounds, 0.47% hits; AID 651704;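 active = every replicate reaching a set inhibition limit, whatever the replicate mean, cut at about 25% in these data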;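 note: 0% = plate neutral control median and 100% = total signal loss; the record names both 10 and 1 µM as test concentration; the first replicate is given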
# Target sequence (P42568 whole entry, looked up): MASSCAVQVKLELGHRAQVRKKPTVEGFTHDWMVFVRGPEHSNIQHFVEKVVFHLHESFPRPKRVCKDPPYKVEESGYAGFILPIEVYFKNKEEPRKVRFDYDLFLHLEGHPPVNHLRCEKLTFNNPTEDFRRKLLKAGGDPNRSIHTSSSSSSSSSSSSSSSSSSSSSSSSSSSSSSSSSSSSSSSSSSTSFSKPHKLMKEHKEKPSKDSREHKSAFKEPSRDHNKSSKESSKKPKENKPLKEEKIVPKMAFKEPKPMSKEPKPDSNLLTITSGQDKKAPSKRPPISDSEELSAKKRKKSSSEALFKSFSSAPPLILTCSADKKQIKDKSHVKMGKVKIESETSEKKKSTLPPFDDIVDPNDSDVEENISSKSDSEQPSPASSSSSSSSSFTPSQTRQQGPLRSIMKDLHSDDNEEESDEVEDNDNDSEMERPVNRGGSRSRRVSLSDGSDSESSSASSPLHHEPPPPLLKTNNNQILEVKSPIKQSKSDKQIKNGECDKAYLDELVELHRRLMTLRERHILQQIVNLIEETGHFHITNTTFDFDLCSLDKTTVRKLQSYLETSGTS
# Ecoli rRNA inh OD600: second read-out of Ecoli rRNA inh, no call of its own (marks repeat the call); OD600 change, %; measured here: OD600 growth;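 optical density of the mix in the first replicate; 0 = DMSO median and -100 = no signal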
# Ecoli rRNA inh RFP: also measured in Ecoli rRNA inh; calls as there; RFP signal change, %; measured here: RFP humanized mutant strains;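 first replicate; 0 = DMSO median and -100 = no signal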
# * marks the source's active call; other numbers are inactive results.
[1] CO[C@H]1CN(C)C(=O)c2cc(NS(=O)(=O)c3cccc(C)c3)ccc2OC[C@@H](C)NC[C@H]1C
[2] CN1C(=O)c2cc(NC(=O)Nc3cccc(Cl)c3)ccc2OC[C@H]2O[C@@H](CC(=O)O)CC[C@@H]21
[3] CC(=O)NCCNC(=O)C1(C)Cc2c(-c3ccccc3)ccnc2O1 (configuration not stated)
[4] C[C@H]1CN([C@@H](C)CO)C(=O)c2cc(-c3ccncc3)cnc2O[C@H]1CN(C)C(=O)CN1CCOCC1
[5] C[C@@H]1CCCCO[C@H](CN(C)Cc2ccc3c(c2)OCO3)[C@@H](C)CN([C@@H](C)CO)C(=O)c2cc(NC(=O)NC3CCCCC3)ccc2O1
[6] CO[C@@H]1CN(C)C(=O)c2cc(NC(=O)C3CCCCC3)ccc2OC[C@H](C)N(Cc2nccs2)C[C@@H]1C
[7] C[C@@H]1CCCCO[C@H](CN(C)S(=O)(=O)c2ccc(F)cc2)[C@H](C)CN([C@@H](C)CO)C(=O)c2cc(NS(=O)(=O)c3ccccc3)ccc2O1
[8] Cc1noc(C)c1S(=O)(=O)Nc1ccc2c(c1)C(=O)N([C@@H](C)CO)C[C@@H](C)[C@@H](CN(C)C(=O)Nc1ccc(C(F)(F)F)cc1)OCCCC[C@@H](C)O2
Assay by compound	1	2	3	4	5	6	7	8
Ecoli rRNA inh	3	2	11	11	4	-7	2	-4
Ecoli rRNA inh OD600	-1	3	23	14	-3	-9	-2	1
Ecoli rRNA inh RFP	-2.1	-1.5	-1.1	-1.3	-1.0	3.6	-0.2	-4.2
MLL AF4-AF9 inh	-2.3	-5.4	-1.9	-3.2	7.3	-1.7	-1.3	-4.1

[9] COc1cccc(NC(=O)N2CC(=O)N3[C@H](CO)[C@H](c4ccc(Br)cc4)[C@@H]3C2)c1
[10] C[C@@H]1CN([C@@H](C)CO)C(=O)c2cc(-c3cccnc3)cnc2O[C@@H]1CN(C)Cc1ccc(Oc2ccccc2)cc1
[11] Cc1cccc(C)c1NC(=O)C(c1ccccc1)N1CCN(c2ccc(F)cc2)CC1 (configuration not stated)
[12] C[C@@H]1CCCCO[C@H](CN(C)C(=O)Nc2ccc(F)cc2)[C@@H](C)CN([C@@H](C)CO)C(=O)c2cc(NC(=O)CCCN(C)C)ccc2O1
[13] COC(=O)[C@@]12C[C@@H](CC(=O)N3CCN(C(=O)c4ccco4)CC3)C(=O)N(Cc3ccco3)C1=CCC(C)(C)C2
[14] C[C@H]1CN([C@@H](C)CO)C(=O)c2cc(-c3cccnc3)cnc2O[C@H]1CN(C)C(=O)NC1CCCC1
[15] CCNC(=O)C[C@H]1CC[C@@H]2[C@H](COC[C@@H](O)CN2C(=O)Nc2ccc(C(F)(F)F)cc2)O1
[16] CCCN1[C@H](CO)[C@H](c2ccc(C#CC(C)C)cc2)[C@@H]1CN(C)S(C)(=O)=O
Assay by compound	9	10	11	12	13	14	15	16
Ecoli rRNA inh	-3	-2	22	0	6	3	-52	1
Ecoli rRNA inh OD600	-3	-16	21	-4	10	-7	-67	0
Ecoli rRNA inh RFP	-1.5	2.0	-2.7	-4.5	4.9	-2.0	-7.1	1.5
MLL AF4-AF9 inh	-3.8	2.6	-1.9	0.6	-2.9	-18	-3.8	-0.1

[17] COc1ccc(N2CCN(C(=O)C(=O)c3ccc(F)cc3)CC2)cc1
[18] CC(=O)N1CC2(C1)[C@@H](c1ccc(-c3cccc(F)c3)cc1)[C@@H](CO)N2CC1CCCC1
[19] CCS(=O)(=O)NCC[C@H]1CC[C@H](NC(=O)C2CCCC2)[C@@H](CO)O1
[20] COc1ccc2c3c(n(C)c2c1)[C@@H](CO)N(Cc1ccncc1)CC31CN(C(=O)C2CCC2)C1
[21] CC=Cc1ccc2n(c1=O)C[C@@H]1[C@@H](CO)[C@H](C(=O)NCC3CCCCC3)N(C(C)=O)[C@H]21 (mixture of isomers)
[22] CCCN(C)C[C@H]1Oc2ncc(C#Cc3ccccc3OC)cc2C(=O)N([C@H](C)CO)C[C@H]1C
[23] CC(C)[C@H](C)NC(=O)N(C)C[C@@H]1OCc2ccccc2-c2ccccc2C(=O)N([C@H](C)CO)C[C@H]1C
[24] C[C@H](CO)N1C[C@H](C)[C@@H](CN(C)S(=O)(=O)c2cn(C)cn2)Oc2ccc(NC(=O)CCN3CCOCC3)cc2CC1=O
Assay by compound	17	18	19	20	21	22	23	24
Ecoli rRNA inh	-8	-35	-1	-1	0	-6	0	2
Ecoli rRNA inh OD600	-2	-47	4	-1	2	-1	2	4
Ecoli rRNA inh RFP	-0.2	29	-0.6	-1.0	-0.5	2.8	-3.9	0.8
MLL AF4-AF9 inh	-8.9	0.8	0.3	1.3	-0.4	4.2	1.4	-9.2

[25] Cc1cccc(NC(=O)CCS(=O)(=O)c2ccc3nc(C)sc3c2)c1
[26] O=C(C1CC1)N1C[C@@H]2[C@H](c3ccccc31)[C@@H](CO)N2C(=O)c1ccccc1
[27] CC(C)=CCC[C@H](C)C[C@@H]1CC2=C(C(=O)OC(C)(C)O2)[C@H](c2ccc(F)cc2)O1
[28] COC(=O)[C@]12C[C@H](CC(=O)N3CCN(C(=O)C4CC4)CC3)C(=O)N(CCC3=CCCCC3)C1=C[C@H](COCc1ccccc1)O[C@@H]2C
[29] C[C@@H]1CN([C@H](C)CO)C(=O)c2c(c3ccccc3n2C)-c2ccccc2CO[C@@H]1CN(C)C
[30] CO[C@H](CN(C)S(=O)(=O)c1cccc(Cl)c1)[C@@H](C)CN([C@H](C)CO)S(=O)(=O)c1ccc(Cl)cc1
[31] CC(=O)N(C)C[C@H]1Oc2cc(C#Cc3ccccn3)ccc2S(=O)(=O)N([C@H](C)CO)C[C@@H]1C
[32] COCCNC(=O)C1(C)CCCN(C(=O)c2cnc3ccccc3n2)C1 (configuration not stated)
Assay by compound	25	26	27	28	29	30	31	32
Ecoli rRNA inh	9	2	9	-12	-1	-3	-1	6
Ecoli rRNA inh OD600	5	8	2	-20	1	-19	9	7
Ecoli rRNA inh RFP	0.3	0.6	-0.8	3.5	-0.2	0.7	-2.5	0.4
MLL AF4-AF9 inh	-4.4	-1.2	-3.7	1.9	-2.6	-3.2	-2.2	-6.6

[33] C[C@H]1CN([C@@H](C)CO)C(=O)c2cc(NS(=O)(=O)c3ccc(F)cc3)ccc2O[C@H]1CN(C)C(=O)Nc1ccccc1
[34] CCN(C[C@@H]1N[C@@H](CO)[C@@H]1c1ccccc1)C(=O)c1ccncc1
[35] CC(O)(c1ccccc1)c1nc(-c2csc3ccccc23)cs1 (configuration not stated)
[36] COc1ccc(NC(=O)N(C)C[C@@H]2OCCCC[C@@H](C)Oc3ccc(NC(=O)C4CCCCC4)cc3C(=O)N([C@H](C)CO)C[C@@H]2C)cc1
[37] CCN(C[C@H]1N[C@H](CO)[C@@H]1c1ccccc1)C(=O)c1ccncc1
[38] C/C=C/c1ccc([C@@H]2[C@@H](CO)N3CCCCN(S(=O)(=O)c4ccc(F)cc4)C[C@H]23)cc1
[39] COC(=O)c1cnc(Nc2nc(C(N)COCc3ccccc3)cs2)nc1C(F)(F)F (configuration not stated)
[40] CO[C@@H]1CN(C)C(=O)c2ccc(NC(=O)c3ccccc3F)cc2OC[C@@H](C)N(C(=O)c2ccccc2F)C[C@H]1C
Assay by compound	33	34	35	36	37	38	39	40
Ecoli rRNA inh	-2	0	-38	3	3	-52	2	0
Ecoli rRNA inh OD600	6	-2	-72	1	8	-64	-9	-3
Ecoli rRNA inh RFP	0.0	-3.2	-9.9	-2.0	-2.6	-6.4	26	12
MLL AF4-AF9 inh	-0.6	-1.4	-0.9	-0.3	-2.7	5.8	-2.9	0.3

[41] CS(=O)(=O)N1[C@H](C#N)[C@H](c2ccccc2)[C@H]1CO
[42] C[C@H](CO)N1C[C@H](C)[C@H](CN(C)Cc2ccc(C(=O)Nc3ccccc3N)cc2)Oc2ccc(NC(=O)CCC(F)(F)F)cc2CC1=O
[43] O=C(C[C@H]1CC[C@H]2[C@@H](COC[C@H](O)CN2Cc2ccc3c(c2)OCO3)O1)Nc1ccccc1
[44] CCCCc1c(Cc2cccc(F)c2)ncn1CCc1ccccc1OC
[45] CCCNC(=O)N1[C@H](CN(C)C(C)=O)[C@H](c2ccc(C3=CCCC3)cc2)[C@@H]1CO
[46] C#CCN1C=CC(=O)[C@@H](O)[C@H]1c1ccccc1Br
[47] COCC(=O)Nc1ccc2c(c1)[C@H]1C[C@@H](CC(=O)N[C@H](C)c3ccccc3)O[C@H](CO)[C@H]1O2
[48] C[C@H](CO)N1C[C@H](C)[C@@H](CN(C)C(=O)Nc2ccc(C(F)(F)F)cc2)OCCCC[C@H](C)Oc2ccc(NC(=O)Nc3ccccc3)cc2C1=O
Assay by compound	41	42	43	44	45	46	47	48
Ecoli rRNA inh	-2	-3	-8	-66	0	26	1	4
Ecoli rRNA inh OD600	4	-2	-15	-78	2	9	3	3
Ecoli rRNA inh RFP	1.6	-1.8	-1.7	-26	-1.6	-0.2	-0.9	-3.1
MLL AF4-AF9 inh	-0.7	-0.7	-0.4	9.3	-0.4	0.0	0.0	0.0

[49] CO[C@H]1CN(C)C(=O)c2ccc(NS(=O)(=O)c3ccc(C)cc3)cc2OC[C@@H](C)N(C)C[C@@H]1C
[50] Cc1ccc(S(=O)(=O)Nc2ccc3c(c2)CC(=O)N([C@H](C)CO)C[C@@H](C)[C@H](CN(C)C(=O)Nc2ccc(F)cc2)O3)cc1
[51] C[C@H](CO)N1C[C@H](C)[C@H](CN(C)C)Oc2ncc(C#CC(C)(C)O)cc2C1=O
[52] CCCNC(=O)[C@@H]1[C@@H](CO)[C@@H]2Cn3c(ccc(C4=CCCC4)c3=O)[C@H]1N2CCC(F)(F)F
[53] C[C@H](CO)N1C[C@H](C)[C@H](CN(C)CC2CC2)Oc2ccc(N(C)C)cc2CC1=O
[54] C/C=C/c1cnc2c(c1)C(=O)N([C@@H](C)CO)C[C@H](C)[C@@H](CN(C)C(=O)Nc1ccc(OC)cc1)O2
[55] CO[C@H]1CN(C)C(=O)c2ccc(NC(=O)c3ccc4c(c3)OCO4)cc2OC[C@@H](C)N(CC2CC2)C[C@H]1C
[56] CNC(=O)C[C@@H]1CC[C@@H]2[C@H](COC[C@H](O)CN2S(=O)(=O)c2ccc(Oc3ccccc3)cc2)O1
Assay by compound	49	50	51	52	53	54	55	56
Ecoli rRNA inh	-3	4	1	2	2	-1	0	1
Ecoli rRNA inh OD600	4	0	14	-3	-6	4	4	10
Ecoli rRNA inh RFP	-1.7	0.3	-4.2	-0.6	0.4	-0.6	-2.3	0.4
MLL AF4-AF9 inh	-0.1	-2.4	-2.8	0.3	0.7	-36	-0.3	-0.7

[57] CCCCn1c(-c2nonc2NC(=O)c2ccccc2Cl)nc2ccccc21
[58] O=C(NC1CCCCC1)C(CCc1ccccc1)N1CCc2ccccc2C1 (configuration not stated)
[59] C[C@@H]1CCCCO[C@@H](CN(C)Cc2ccc(C(=O)Nc3ccccc3N)cc2)[C@@H](C)CN([C@H](C)CO)C(=O)c2cc(NS(=O)(=O)c3ccc(Cl)cc3)ccc2O1
[60] COc1ccc(-n2nnnc2C(c2cc3ccccc3o2)N2CCN(C/C=C/c3ccccc3)CC2)cc1 (configuration not stated)
[61] CC(C)NC(=O)Nc1ccc2c(c1)C(=O)N([C@H](C)CO)C[C@H](C)[C@H](CN(C)C(=O)c1ccncc1)OCCCC[C@@H](C)O2
[62] Cc1ccc(S(=O)(=O)N(C)C[C@H]2Oc3ccc(NS(=O)(=O)c4ccc(Cl)cc4)cc3C(=O)N([C@@H](C)CO)C[C@H]2C)cc1
[63] Cc1cc(NC(=O)C(C)SCC(=O)Nc2cccc(S(=O)(=O)N3CCCCCC3)c2)no1 (configuration not stated)
[64] COc1cccc(C(=O)Nc2ccc3c(c2)C(=O)N(C)C[C@@H](OC)[C@H](C)CN(C(=O)C2CCCC2)[C@H](C)CO3)c1
[65] C[C@H](CO)N1C[C@H](C)[C@@H](CN(C)Cc2ccc(Oc3ccccc3)cc2)Oc2ccc(NC(=O)Nc3cccc4ccccc34)cc2CC1=O
[66] CCCNC(=O)C1(C)CCN(C(=O)c2cccnc2Oc2ccccc2)C1 (configuration not stated)
Assay by compound	57	58	59	60	61	62	63	64	65	66
Ecoli rRNA inh	10	-7	1	10	5	-2	-8	-4	2	14
Ecoli rRNA inh OD600	10	-21	-7	-1	7	-16	-15	-4	-3	23
Ecoli rRNA inh RFP	21	-2.1	2.6	12	-3.0	-0.5	-1.6	10	3.4	0.1
MLL AF4-AF9 inh	2.6	2.1	-1.6	3.6	0.2	0.6	4.8	-7.1	-0.6	-8.2

# Reprinted at random: 4 entries already listed
[60] COc1ccc(-n2nnnc2C(c2cc3ccccc3o2)N2CCN(C/C=C/c3ccccc3)CC2)cc1 (configuration not stated)
[58] O=C(NC1CCCCC1)C(CCc1ccccc1)N1CCc2ccccc2C1 (configuration not stated)
[59] C[C@@H]1CCCCO[C@@H](CN(C)Cc2ccc(C(=O)Nc3ccccc3N)cc2)[C@@H](C)CN([C@H](C)CO)C(=O)c2cc(NS(=O)(=O)c3ccc(Cl)cc3)ccc2O1
[57] CCCCn1c(-c2nonc2NC(=O)c2ccccc2Cl)nc2ccccc21
Assay by compound	60	58	59	57
Ecoli rRNA inh	10	-7	1	10
Ecoli rRNA inh OD600	-1	-21	-7	10
Ecoli rRNA inh RFP	12	-2.1	2.6	21
MLL AF4-AF9 inh	3.6	2.1	-1.6	2.6

# An excerpt (hit frequency here may not be typical).
